# Assay outcomes (PubChem BioAssay)
# Rango dissoc inh = prevents RanGTP from dissociating the Rango-importin beta complex; O95149+P62826; Biochemical FRET Rango-importin beta, RanGTP-induced dissociation; Potency, µM (doses to about 46.1 µM), without a hit: at the top dose activity change, negative = inhibition; 0.071% of 340,000 active; AID 540253; active means falling FRET ratio curve, often poorly fitted, with flat reads before Ran was added; inconclusive means other falling curves, or compound fluorescence or quenching; inactive means flat or rising ratio curve;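 also: potency is read from the fitted curve at half-maximal effect; % of control where 0% means no effect; nearly all actives have a fitted effect of over 45% in size; -100% = wells without RanGTP and RCC1; the record marks most hits as doubtful in a second field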
#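 Recombinant Rango FRET biosensor (EYFP–snurportin 1 IBB–cerulean CFP10) at 0.1 uM premixed with 0.25 uM importin beta in PBS, 1 mM DTT, 0.02% Tween-20, 0.1% BSA. Compound added 5 min; RanGTP-RCC1 (0.6 uM Ran, 2 mM GTP, 0.2 uM RCC1) then triggers release, read at 45 min.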
# GLA inh pH 4.5 = blocks human alpha-galactosidase A at pH 4.5 | activity change, negative = inhibition, % at 105 µM | 230,000 tested, under 10 active | purified enzyme, 4-MU-alpha-Gal fluorescence, pH 4.5 | P06280; inconclusive = small, poorly fitted or top-dose-only inhibition, or a rising curve; inactive = flat fitted curve, though single readings scatter; no compound was filed as active;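 also: 0% = full activity with enzyme and -100% = basal without enzyme; dose as in the result columns while the protocol names 77 µM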
# Target sequence (P06280 whole entry, looked up): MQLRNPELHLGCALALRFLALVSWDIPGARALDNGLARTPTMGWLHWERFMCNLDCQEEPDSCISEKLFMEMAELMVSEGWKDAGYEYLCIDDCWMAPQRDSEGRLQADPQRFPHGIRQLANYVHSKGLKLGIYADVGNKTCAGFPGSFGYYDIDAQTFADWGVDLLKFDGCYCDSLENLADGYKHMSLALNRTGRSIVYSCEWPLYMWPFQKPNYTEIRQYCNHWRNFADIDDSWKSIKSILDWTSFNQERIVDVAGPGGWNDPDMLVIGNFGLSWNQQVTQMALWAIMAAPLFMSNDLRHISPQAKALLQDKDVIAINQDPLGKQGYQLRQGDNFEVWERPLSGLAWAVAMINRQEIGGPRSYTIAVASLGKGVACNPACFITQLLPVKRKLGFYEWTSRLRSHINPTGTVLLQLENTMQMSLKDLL
# miR-21 reporter = raises the signal of a miR-21 reporter; Potency, µM (highest dose often 38.3 µM), for inactives: at the highest dose reporter change, positive = more light; AID 2288; HeLa miR-21 FLuc reporter, luciferase, 48 h; 340,000 tested, under 10 active; active = well fitted rising curve with a large enough effect; inconclusive = small, poorly fitted or top-dose-only effect; inactive = no such curve, though single readings can be large or run the other way;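 also: % of control where 0% means no effect; miR-21 action dims this reporter so a rising signal means less miR-21 action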
#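 HeLa cells stably expressing CMV-driven firefly luciferase with a downstream miR-21 binding sequence, endogenously expressing miR-21, were treated with titrations (up to about 40uM final) for 48 hours at 37 degree Celsius. Luciferase luminescence was read after lysis.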
# Rango-impB inh = Rango-importin beta binding inhibition; Q14974; Rango CFP/YFP FRET sensor + importin beta, 45 min; Potency, µM (top dose mostly 92.2 µM), without a hit: at the top dose inhibition of complex formation; 0.031% of 340,000 active; AID 540263; active = rising FRET ratio curve, often small or poorly fitted; inconclusive = mostly compound fluorescence or quenching in the first reads; inactive = flat curves in all reads;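 also: potency is read from the fitted curve at half-maximal effect; 0% = DMSO wells and 100% = buffer wells lacking importin beta; nearly all actives have a fitted effect of over 15% in size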
#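 Inhibition scored from the CFP 486 nm/YFP 530 nm FRET ratio 45 min after adding 0.125 microM importin beta to 50 nM Rango biosensor preincubated 5 min with compound (room temperature, PBS with DTT, Tween-20, BSA). No-importin wells as positive control.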
# * marks the source's active call; other numbers are inactive results; ? = inconclusive; / = not tested or not shown. This is a subset; the hit share may differ from the screen's.
# Every second line gives: Rango dissoc inh	GLA inh pH 4.5	miR-21 reporter	Rango-impB inh
[1] COc1ccc(NC(=O)c2cc([N+](=O)[O-])ccc2O)cc1
 : 28.6%	3.0	?	0.3%
[2] Cc1ccc(S(=O)(=O)N2CCOCC2)cc1C(=O)Nc1nc2ccccc2[nH]1
 : -8.1%	-6.7	-10.7%	-0.1%
[3] CCN(CC)c1ccc(/C=N/NC(=S)NCc2ccc(OC)cc2)cc1
 : -22.6%	-0.4	-24.6%	?
[4] CC1(C)Cc2cccc(OCC(=O)OCC(=O)Nc3cccc(S(N)(=O)=O)c3)c2O1
 : -8.3%	9.9	1.3%	0.3%
[5] O=C(Nc1ccc2ccccc2c1)c1cn(-c2ccccc2)nc1-c1cccs1
 : 0.7%	5.3	-21.4%	0.3%
[6] COc1cc(C=O)ccc1OC(=O)N1CCOCC1
 : -8.8%	/	2.5%	-2.3%
[7] Cc1[nH]c2ccccc2c1C(=O)CSc1nc2cc(S(=O)(=O)N3CCCCC3)ccc2o1
 : 0.1%	-5.2	-0.9%	1.7%
[8] O=c1c2cc(-c3ccccc3)sc2ncn1/N=C/c1ccco1
 : -0.7%	-14.8	-49.1%	-2.2%
[9] CN(Cc1ccc(Cl)cc1Cl)C(=O)CCNC(=O)c1ccco1
 : -9.9%	/	/	-0.8%
[10] CCOc1ccc(N(CC(=O)NC2CCCCC2C)S(=O)(=O)c2c(C)noc2C)cc1 (centres undefined)
 : -5.8%	/	-2.6%	-3.1%

# 4 entries drawn at random from the list so far:
# Every second line gives: Rango dissoc inh	GLA inh pH 4.5	miR-21 reporter	Rango-impB inh
[3] CCN(CC)c1ccc(/C=N/NC(=S)NCc2ccc(OC)cc2)cc1
 : -22.6%	-0.4	-24.6%	?
[2] Cc1ccc(S(=O)(=O)N2CCOCC2)cc1C(=O)Nc1nc2ccccc2[nH]1
 : -8.1%	-6.7	-10.7%	-0.1%
[10] CCOc1ccc(N(CC(=O)NC2CCCCC2C)S(=O)(=O)c2c(C)noc2C)cc1 (centres undefined)
 : -5.8%	/	-2.6%	-3.1%
[5] O=C(Nc1ccc2ccccc2c1)c1cn(-c2ccccc2)nc1-c1cccs1
 : 0.7%	5.3	-21.4%	0.3%

# Back to the main list; the three compounds before the break are reprinted first.
# Every second line gives: Rango dissoc inh	GLA inh pH 4.5	miR-21 reporter	Rango-impB inh
[8] O=c1c2cc(-c3ccccc3)sc2ncn1/N=C/c1ccco1
 : -0.7%	-14.8	-49.1%	-2.2%
[9] CN(Cc1ccc(Cl)cc1Cl)C(=O)CCNC(=O)c1ccco1
 : -9.9%	/	/	-0.8%
[10] CCOc1ccc(N(CC(=O)NC2CCCCC2C)S(=O)(=O)c2c(C)noc2C)cc1 (centres undefined)
 : -5.8%	/	-2.6%	-3.1%
[11] COc1ccc(C(C(=O)NCC2CCCO2)N(Cc2cccs2)C(=O)c2snc(C(N)=O)c2N)cc1 (centres undefined)
 : -6.2%	/	12.0%	1.3%
[12] COc1cc(OC)cc(-c2c(-c3cccs3)c3cc(-c4cnc(N)nc4)ccc3n2C)c1
 : -8.5%	/	/	-0.8%
[13] O=S(=O)(c1cccc2nsnc12)N1CCCCC1
 : 17.6%	/	-2.7%	0.7%
[14] CCN(CC)S(=O)(=O)c1cc(Br)c(C)cc1OC
 : -4.8%	-2.3	-8.7%	0.6%
[15] CCOC(=O)c1c2ccccc2[n+]([O-])n1[C@@H](C)C(N)=O
 : 9.4%	/	/	1.3%
[16] COc1ccc(C(=O)NNC(=O)C(NC(=O)c2cc(OC)cc(OC)c2)C(C)C)cc1 (centres undefined)
 : 5.5%	/	/	-4.8%
[17] CCOc1ccc2nc(SCc3ccc(C(=O)OC)o3)[nH]c2c1
 : -7.6%	-3.6	-18.0%	0.1%
[18] Fc1cnc(N2CCOCC2)nc1NCc1ccccc1
 : 8.5%	-9.0	-11.2%	2.0%
[19] O=C(NCc1cccc(Cl)c1)c1cc(=O)[nH]c2ccccc12
 : 6.9%	/	-1.0%	2.6%
[20] CCn1c(SCC(=O)Nc2cc(C)ccc2C)nnc1-c1cnccn1
 : 11.4%	0.9	-1.2%	0.3%
[21] CC(C)C1Nc2ccc(C(=O)NC3CCCCC3)cc2NC1=O (centres undefined)
 : -1.6%	/	-0.7%	-0.9%
[22] Cc1ccc(S(=O)(=O)NCCC(=O)NCC(c2ccc(F)cc2)N2CCOCC2)cc1 (centres undefined)
 : 3.4%	/	/	-2.8%
[23] O=C(Cn1nnc(-c2ccc(Cl)cc2)n1)N1CCN(C(=O)c2ccco2)CC1
 : 30.7%	/	/	-3.1%
[24] O=C(Nc1cccc(F)c1)C1C2C=CC3(CN(CCCN4CCOCC4)C(=O)C13)O2 (centres undefined)
 : 3.6%	5.3	-1.7%	-2.4%
[25] Cc1oc(-c2ccc(Cl)cc2)nc1CS(=O)CC(=O)NC1CCCCCC1 (centres undefined)
 : -0.1%	/	-0.9%	7.5%
[26] CC[C@@]1(C(=O)OC)N[C@H](CN(C)C(=O)COc2ccccc2)[C@@H]2C(=O)N(C)C(=O)[C@@H]21
 : -11.2%	/	/	5.0%
[27] Cc1csc(=NC(=O)c2ccccc2)n1Cc1ccco1
 : 15.5%	3.8	-17.9%	10.4%
[28] C=CCc1c(C)nc(-c2ccccc2)nc1N/N=C(\C)c1ccccc1
 : 0.5%	-1.2	-32.1%	-1.4%
[29] FC(F)(F)c1ccncc1-c1nnc(C2CCCCC2)o1
 : -1.2%	-13.1	-9.7%	-2.1%
[30] CCOC(=O)N1CCN(c2c(N3CCOCC3)c(=O)c2=O)CC1
 : 2.3%	-1.6	2.2%	3.2%
[31] CCNC(=O)c1cccc(S(=O)(=O)N2CCCCCC2)c1
 : -7.3%	4.6	-15.7%	2.5%
[32] C=CCNC(=S)N/N=C/c1cn(-c2ccccc2)nc1-c1ccc(OC)cc1
 : 1.7%	-6.7	-16.2%	?
[33] O=C(Cn1nnc(-c2ccc3c(c2)OCO3)n1)Nc1ccccc1C(=O)O
 : -6.9%	/	-69.5%	-0.2%
[34] O=C(NOCc1ccccc1)c1ccc([N+](=O)[O-])cc1
 : -7.3%	/	/	-4.1%
[35] Cc1ccc(S(=O)(=O)NC2=NCN(Cc3ccccc3)CN2)cc1
 : -10.2%	6.2	0.1%	-4.0%
[36] O=C(CN1CCN(c2ccccc2O)CC1)Nc1cccnc1Cl
 : 2.3%	2.2	-21.1%	0.5%
[37] Cc1nn(Cc2cccc(C(=O)N3N=C(C(F)F)CC3(O)C(F)F)c2)c(C)c1[N+](=O)[O-] (centres undefined)
 : 3.9%	-2.1	18.4%	-0.1%
[38] CCN(CC)CCNC(C(=O)Nc1cc(C(F)(F)F)ccc1Cl)c1ccccc1 (centres undefined)
 : 17.9%	-6.6	-10.5%	0.0%
[39] Cc1cc(C)c(NC(=O)COC(=O)Cc2cccs2)c(C)c1
 : -0.2%	/	/	-0.9%
[40] COC(=O)c1sccc1NC(=O)c1cc2c(s1)CCCC2
 : 6.3%	6.1	-3.3%	-3.2%

# Shown screen by screen: part of the list above
36	O=C(CN1CCN(c2ccccc2O)CC1)Nc1cccnc1Cl
33	O=C(Cn1nnc(-c2ccc3c(c2)OCO3)n1)Nc1ccccc1C(=O)O
39	Cc1cc(C)c(NC(=O)COC(=O)Cc2cccs2)c(C)c1
35	Cc1ccc(S(=O)(=O)NC2=NCN(Cc3ccccc3)CN2)cc1

Screen / compound no.	36	33	39	35
Rango dissoc inh	2.3%	-6.9%	-0.2%	-10.2%
GLA inh pH 4.5	2.2	/	/	6.2
miR-21 reporter	-21.1%	-69.5%	/	0.1%
Rango-impB inh	0.5%	-0.2%	-0.9%	-4.0%

# Single values from above.
# no. 36 in Rango dissoc inh is listed with 2.3%
# no. 34 in Rango-impB inh is listed with -4.1%

# Remaining list, next part.
# Every second line gives: Rango dissoc inh	GLA inh pH 4.5	miR-21 reporter	Rango-impB inh
[41] O=C(C[n+]1cccc2ccccc21)c1ccccc1
 : 0.4%	-1.4	-24.6%	?
[42] C=CC(COCc1ccccc1)N(CC(=O)OC)S(=O)(=O)c1cc(Br)ccc1OC (centres undefined)
 : -10.2%	/	/	-4.4%
[43] O=C(Nc1ccc2nn(-c3ccc(F)cc3)nc2c1)c1cccnc1
 : ?	-1.0	-49.0%	?
[44] COc1ccc2cc(/C=C/C(=O)N3CCN(CC(=O)N4CCCCCC4)CC3)ccc2c1
 : 2.7%	/	-17.4%	4.3%
[45] Cc1cc(C)cc(N(C(=O)c2sc(C)nc2C)C(C(=O)NC(C)(C)C)c2ccncc2)c1 (centres undefined)
 : 0.6%	6.3	1.7%	-2.5%
[46] O=C(Nc1ccccc1F)Nc1ccccc1N1CCCCC1
 : -11.5%	1.9	15.9%	4.0%
[47] O=C(CCN1C(=O)C2C3CCC(C3)C2C1=O)Nc1ccccc1Cl (centres undefined)
 : -2.7%	/	-0.6%	-0.7%
[48] O=C(O)CN(Cc1ccco1)S(=O)(=O)c1ccccc1
 : -2.6%	3.2	-5.1%	0.1%
[49] CCOc1ccc(N(CC(=O)NCC2CCCO2)C(=O)CCC(=O)Nc2nccs2)cc1 (centres undefined)
 : 3.2%	-2.6	0.1%	-1.1%
[50] O=c1cnnc(SCCc2ccccc2)[nH]1
 : 4.9%	4.1	-8.4%	4.0%
[51] O=C(O)c1cccc(NCc2ccncc2)c1
 : /	1.7	-2.0%	/
